Assay outcomes from PubChem.
D2 ag = agonists of human D2 dopamine receptor (beta-arrestin). P14416. DiscoveRx PathHunter D2 beta-arrestin, luminescence, 90 min; 100% = 57 uM dopamine signal. activation, % (concentration not given with the values). 360,000 tested, 0.084% active. AID 624465; in the data active = activation above about 40%; inconclusive = about 15% to 40%; inactive = below about 15%; note: compound concentration not given in the record; the text of the record calls up to 30% inactive
Target sequence (P14416 whole entry, looked up): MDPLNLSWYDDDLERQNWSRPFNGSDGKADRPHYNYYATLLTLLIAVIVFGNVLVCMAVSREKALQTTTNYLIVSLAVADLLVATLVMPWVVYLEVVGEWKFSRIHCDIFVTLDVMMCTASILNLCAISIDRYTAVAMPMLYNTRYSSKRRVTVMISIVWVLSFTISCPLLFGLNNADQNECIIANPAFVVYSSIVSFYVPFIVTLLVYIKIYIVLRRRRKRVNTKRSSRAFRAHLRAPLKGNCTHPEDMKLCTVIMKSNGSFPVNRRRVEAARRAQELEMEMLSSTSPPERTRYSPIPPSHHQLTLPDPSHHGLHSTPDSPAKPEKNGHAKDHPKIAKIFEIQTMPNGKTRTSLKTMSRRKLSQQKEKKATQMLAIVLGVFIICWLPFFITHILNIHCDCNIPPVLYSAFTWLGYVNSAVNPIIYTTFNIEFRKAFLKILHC
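DiscoveRx PathHunter D2 beta-arrestin cells (2,100/well) attached overnight, then compound-stimulated 90 min at 37 C in HBSS/10 mM HEPES/0.1% Tween-20 buffer; beta-galactosidase complementation read by luminescence after 1 h at ambient temperature. Dopamine 57 uM final (EC100) as control.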
gsp antagonist = gsp mutant antagonism; AID 624288; 340,000 tested, 0.4% active; Potency, µM (series often up to 76.9 µM), without a hit: at the highest dose activity change, negative = inhibition, usual class: inhibitors; gsp-mutant cells, cAMP HTRF, 30 min; control for the full effect not named in the record; active = falling curve of any shape with a large fitted effect; inconclusive = falling curve, mostly with a smaller effect; inactive = flat or rising curve; cell line not stated here;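 note: intracellular cAMP measured with PDE inhibitor Ro 20-1724 present during compound exposure; potency is the fitted concentration of half-maximal effect; % is set by controls: 0 for no effect and ±100 for the full control effect; nearly all actives have a fitted effect of over 65% in size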
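G418-selected cells were plated in DMEM/10% FBS for 16-24 h at 37C, then treated with compounds plus the PDE inhibitor […] (300 uM solution added) for 30 min at 37C. Intracellular cAMP was measured by HTRF after 30 min lysis at room temperature.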
D2 potentiator = potentiates the human D2 dopamine receptor allosterically; P14416; DiscoveRx D2 beta-arrestin cells, luminescence, 90 min; 100% = 57 uM dopamine signal; potentiation, % (no concentration beside the values); 360,000 tested, 0.23% active; active = potentiation of 50% or more; inconclusive = 30% to 50%; inactive = 30% or less;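 note: compound concentration not given in the record; tested on top of an EC20 dose of dopamine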
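D2 cells co-treated with compound plus 50 nM dopamine (EC20) for 90 min at 37 deg C to detect potentiation. Beta-arrestin recruitment was read as enzyme-fragment luminescence after 1 h at ambient temperature. Full response was set by 57 uM dopamine.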
Six1-Eya2 blk = blocks human Six1 binding to Eya2. Q15475+O00167. AlphaScreen GST-Six1/His-Eya2 binding, biochemical; stronger effect = lower value; control for the full effect not named in the record. activity change, % (concentration not given with the values). 360,000 tested, 0.56% active; in the data active = activity change below about -65%; inconclusive = about -30% to -65%; inactive = above about -30%; note: % is set by controls: 0 for no effect and ±100 for the full control effect
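Compounds are tested against tagged Six1 and Eya2 proteins bridged by glutathione donor and nickel acceptor beads; after a one-hour incubation at 37 °C without light, AlphaScreen emission is recorded.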
CtBP-E1A inh = inhibitors of CtBP/E1A interaction | AlphaScreen GST-E1A/His-CtBP binding, 1536-well; stronger effect = lower value; control for the full effect not named in the record | AID 651724 | 340,000 tested, 0.49% active | activity change, % (concentration not given with the values); in the data active means activity change below about -65%; inconclusive means about -30% to -65%; inactive means above about -30%; note: % is set by controls: 0 for no effect and ±100 for the full control effect
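In 5 uL wells, 23 nL compound meets equimolar GST-E1A and His-CtBP (5X stock 125 nM each) for 2 h, 37 °C. Beads (5X, 50 ug/mL) then 1 h, 37 °C, dark.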
gsp agonist = agonists of gsp mutant (McCune-Albright syndrome); Potency, µM (doses to about 76.9 µM), inactives show at the top dose activation (cAMP increase), hits mostly activators; gsp mutant cells, cAMP HTRF, 30 min; control for the full effect not named in the record; 340,000 tested, 0.13% active; active = well fitted activation curve with a large enough effect; inconclusive = small, poorly fitted or top-dose-only effect, or another doubt; inactive = no such curve, though single readings can be large or run the other way; cell line not stated here;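 note: phosphodiesterase inhibitor Ro 20-1724 added with compounds to block cAMP breakdown; potency is the fitted concentration of half-maximal effect; nearly all actives have a fitted effect of over 60% in size; about a fifth of the inactives were tested at one dose only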
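Cells in DMEM/10% FBS with G418 were pretreated with compounds in DMSO plus […] (300 uM stock) for 30 min at 37C. cAMP was measured by HTRF (cAMP-d2 plus anti-cAMP antibody-K) after 30 min at room temperature.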
* marks the source's active call; other numbers are inactive results; ? = inconclusive; · = no result given; [ ] = dose if it differs, or a comment. Compounds as they come, and some 1.4% of all compounds hit somewhere here.

SMILES	D2 ag	gsp antagonist	D2 potentiator	Six1-Eya2 blk	CtBP-E1A inh	gsp agonist
O=C(Oc1c(CN2CCOCC2)cc(Cl)c2cccnc12)c1cccs1	-6.9	-23.7%	-35.4	-84.4*	-85.9*	-9.9%[15.4 µM]
O=C(CCl)Nc1ccccc1Sc1ccccc1	-1.4	-6.4%	-13.5	-2.7	-2.2	-13.6%
COc1cccc(NC(=O)CC(=O)c2ccccc2)c1	-3.1	0.0%	-10.7	2.0	-1.0	0.9%[15.4 µM]
CCC(=O)Oc1ccc(C(=O)Nc2ccc3c(c2)C(=O)N(C2CCCCC2)C3=O)cc1	0.1	-22.7%	9.8	1.5	3.1	-51.9%[inhibitor]
Cc1nc(-c2ccccc2)nc2[nH]c(-c3ccccc3)cc(=O)c12	-3.5	-6.4%	-38.4	-4.1	-15.7	-22.8%
CCN(Cc1ccccc1)C(=O)CN1C(=O)NC(CC)(c2ccc(F)cc2)C1=O (configuration not stated)	-5.7	-0.8%	-11.0	8.5	1.0	-9.0%[15.4 µM]
Cn1c2c(c3ccccc31)CC/C2=N\O	-3.5	11.0%	4.7	-9.1	-4.0	-3.6%
CCCCCCC(=O)N/N=C1\CCCc2ccccc21	-7.5	-1.2%	-6.5	2.8	7.7	8.1%[15.4 µM]
O=C(NCc1ccccc1)C1=C[C@H](c2ccc3c(c2)OCO3)C[C@H](OCc2ccc(CO)cc2)O1	-0.2	-9.6%	-1.9	-17.2	-23.1	·
N#Cc1ccc(OCc2nnc(SCC(=O)c3ccccc3)n2-c2ccccc2)cc1	-1.2	?	2.8	-1.3	-3.2	0.0%
Cc1nc2ccc(NC(=S)N3CCOCC3)cc2nc1C	2.6	8.8%	-12.2	1.1	·	?
c1ccc(N2CCN(c3c4c(nc5ncnn35)CCC4)CC2)cc1	1.4	-22.5%	4.3	-3.0	-9.6	?
O=C(NCCSCc1c(F)cccc1Cl)Nc1ccccc1	-1.5	-3.8%	1.8	7.5	4.1	?
Cn1c(=O)[nH]c(=O)c2c1nc(NCCO)n2CCOc1ccccc1	2.4	12.0%	2.6	1.7	8.9	9.2%
Cc1ccc(CSCCNC(=O)CN(c2ccc(F)cc2)S(C)(=O)=O)cc1	0.1	5.2%	-3.4	1.0	3.4	1.8%
Clc1ccc(C2=Nn3c(nnc3-c3cc(-c4ccccc4)n[nH]3)SC2)cc1	-2.0	-7.9%	-12.9	-6.2	-0.5	-3.2%
COc1cc2c(cc1NC(=O)c1cc(-c3ccccn3)nc3ccccc13)oc1ccccc12	0.4	-0.2%	-2.9	0.8	3.1	?
Cc1cccc(NC(=O)C(=O)NNC(=O)c2ccc(C(C)(C)C)cc2)c1	-0.9	4.5%	-10.2	-0.3	-7.8	15.6%
COc1ccc2sc(-c3ccc(SC)cc3)c(-c3ccc(O)cc3)c2c1	5.0	-15.5%	-3.3	-2.4	·	15.7%
CCCC(C)C(=O)Nc1ccc(S(N)(=O)=O)cc1 (configuration not stated)	-4.3	1.7%	-1.5	-4.5	-2.6	-19.0%
O=C(CCCCCN1C(=O)c2cccc3cccc(c23)C1=O)NCc1cccnc1	-3.1	-7.3%	-3.9	2.9	1.1	-0.8%[15.4 µM]
COc1ccc(S(=O)(=O)Nc2cccc(F)c2C)cc1C(=O)N1CCOCC1	1.1	0.4%	8.3	96.4	-7.4	8.5%
O=C(NCCCn1ccnc1)C(=O)NCC(c1ccco1)N1CCN(c2ccc(F)cc2)CC1 (configuration not stated)	3.4	5.4%	-11.0	-7.9	-5.5	29.5%
CCOc1nc(-c2ccccc2O)nc2ccccc12	-2.1	1.6%	9.7	6.9	9.4	-41.0%[inhibitor]
O=C(NNc1ncnc2c1cnn2-c1ccc(F)cc1)c1cccs1	-1.1	-85.7%	0.4	-1.0	8.8	26.4%[15.4 µM]
N=c1n(CCO)c2ccccc2n1CCOc1ccc(Cl)cc1Cl	-1.7	9.4%	-4.9	1.6	-4.5	3.2%
C=C1SC(=Nc2ccccc2Cl)N(C(=O)c2sc3ccccc3c2Cl)C1(C)C	-6.8	-2.2%	-5.1	1.4	-2.3	59.5%
CSc1cccc(NC(=O)C2CCN(S(=O)(=O)c3ccc4c(c3)NC(=O)CO4)CC2)c1	-6.2	-7.9%	-35.7	-7.2	-7.5	38.3%
O=S1(=O)c2ccccc2Nc2ccccc21	4.9	-7.4%	10.7	0.9	2.3	-8.7%[15.4 µM]
CCc1nc2ccc(C(=O)Nc3ccc(OC)c(OC)c3)cn2c1N(CC)Cc1cccc(Br)c1	0.7	·	-8.2	-10.4	-9.4	·
CCCCc1nnc(NC(=O)c2oc3ccc(OC)cc3c2C)s1	2.3	7.0%	-1.6	4.3	-2.4	-3.7%
NS(=O)(=O)c1ccc(CNC(=S)NCc2ccc(Cl)cc2)cc1	1.9	7.1%	-16.8	5.6	2.1	13.0%
O=S(=O)(NCC1CCN(S(=O)(=O)c2ccccc2)CC1)c1ccccc1	1.3	-3.8%	11.1	1.5	1.3	9.0%
CCOC(=O)c1ccc(CN2CCCC(C)(C(=O)NCCOC)C2)cc1 (configuration not stated)	-7.4	·	-4.5	2.4	4.6	·
CC(=O)N1CCN(C(=O)c2oc3ccccc3c2C)CC1	-4.4	-0.5%	-21.7	-2.3	2.9	?
COc1ccc(/C=C/c2c([N+](=O)[O-])c(=O)n(C)c(=O)n2C)c(OC)c1	0.4	-3.0%	6.4	10.3	-17.7	-11.2%[15.4 µM]
CCOC(=O)CN1C(=O)CC(c2ccc([N+](=O)[O-])cc2)C1=O (configuration not stated)	-2.4	-11.0%	-1.4	0.0	2.0	-12.2%
Cc1cc(C)cc(C(=O)N2CC(C)OC(C)C2)c1 (configuration not stated)	-4.0	4.0%	-15.5	-3.5	3.2	-24.3%
C/C(=N\O)C(C)(C)NC(=O)Nc1ccc(Cl)cc1	-3.7	2.7%	-12.2	4.6	12.4	-27.0%
Cc1[nH]n(-c2ccccc2)c(=O)c1/C=N/NC(=O)c1ccc(O)cc1O	-1.6	-27.8%	-7.3	-90.7*	·	-3.9%
COc1ccc(Br)c(C(=O)NNC(=O)c2ccc(NS(=O)(=O)c3cccs3)cc2)c1	5.5	-4.0%	-14.2	-13.3	2.1	-5.4%[15.4 µM]
CCc1nc2ccc(C(=O)Nc3cccc(OCC(=O)N(C)C)c3)cn2c1N(C=O)Cc1ccc(OC)cc1	-5.3	·	0.5	-2.2	-3.2	·
O=C(Nc1ccccc1C(F)(F)F)c1ccc(CN2CCC(Cc3ccccc3)CC2)cc1	-2.9	12.0%	-42.8	-1.1	-0.4	-5.5%
CCOC(=O)c1c(C)[nH]c(C(=O)O)c1C	-2.4	0.2%	14.3	0.5	3.9	-19.1%
COc1ccc(C(=O)c2cc3ccc(O)cc3oc2=O)cc1	0.4	-8.8%	-8.3	-9.1	-7.0	5.5%
N#Cc1ccccc1OCC(=O)OCC(=O)NC1CCCCCC1	-3.5	-19.2%	-10.9	5.4	-1.9	-29.9%
CCc1ccc(OC)c(S(=O)(=O)Nc2ccccc2C)c1	-4.0	-7.0%	0.4	0.7	11.7	-42.0%[inhibitor]
Cc1ccc(OCn2c(=O)sc3ccccc32)cc1	-1.9	-10.9%	-6.5	27.0	48.1	-24.7%
Cc1ccccc1CN1C(=O)/C(=C\c2ccc(C(=O)NCCN3CCOCC3)cc2)Sc2ccccc21	-3.6	-22.0%	-8.6	-14.4	-17.8	1.1%
CCOc1cc(/C=C\[N+](=O)[O-])ccc1OCC(=O)N1CCOCC1	-0.2	-6.7%	4.2	5.4	-0.1	-2.7%[15.4 µM]

Next part:
SMILES	D2 ag	gsp antagonist	D2 potentiator	Six1-Eya2 blk	CtBP-E1A inh	gsp agonist
Cc1onc(-c2c(Cl)cccc2Cl)c1COC(=O)c1ccc(Cl)cc1	-1.1	0.6%	-5.5	24.1	29.7	?
C(=N\Nc1nccc(-c2cccnc2)n1)/c1ccccc1	-6.3	-3.1%	-8.5	-20.0	·	8.5%
COC(=O)C1=C(C)N(CCCC(=O)O)C(=O)NC1c1cccc(OC)c1 (configuration not stated)	-1.4	?	-5.2	-3.3	6.8	-24.4%
CCc1ccc(C2CC(c3cccc(OC)c3)n3nc(N)nc3N2)cc1 (configuration not stated)	1.6	7.3%	0.0	2.3	1.9	3.9%
CCOC(=O)C(C)Oc1ncnc2cccc(F)c12 (configuration not stated)	-3.1	8.7%	-9.5	-2.6	2.8	-3.1%[15.4 µM]
CCCc1nnc(SCC(=O)NC2CC2)n1C	-2.5	1.1%	-4.0	5.9	8.7	-3.0%[15.4 µM]
CCCCNC(=O)C1(C)CCN1C(=O)c1cc(C)n(C(C)(C)C)n1 (configuration not stated)	3.4	·	-4.1	3.9	9.7	·
C/C(=N\Nc1cc(-c2ccccc2)nc(-c2ccccc2)n1)c1ccc(O)c(C)c1	-5.7	4.1%	-16.1	-10.5	0.0	-7.2%
O=C(c1ccccc1F)N1CCN(c2ccc([N+](=O)[O-])c(N3CCOCC3)c2)CC1	-2.1	-13.1%	-1.1	1.0	-19.7	-3.1%
O=c1cc2c(n[nH]1)CCCC2	-3.4	8.5%	-7.2	-0.8	0.2	-17.3%

A second format for 3 compounds above.
D2 ag	gsp antagonist	D2 potentiator	Six1-Eya2 blk	CtBP-E1A inh	gsp agonist	mol
0.1	5.2%	-3.4	1.0	3.4	1.8%	Cc1ccc(CSCCNC(=O)CN(c2ccc(F)cc2)S(C)(=O)=O)cc1
-2.0	-7.9%	-12.9	-6.2	-0.5	-3.2%	Clc1ccc(C2=Nn3c(nnc3-c3cc(-c4ccccc4)n[nH]3)SC2)cc1
0.4	-0.2%	-2.9	0.8	3.1	?	COc1cc2c(cc1NC(=O)c1cc(-c3ccccn3)nc3ccccc13)oc1ccccc12

Carrying on.
SMILES	D2 ag	gsp antagonist	D2 potentiator	Six1-Eya2 blk	CtBP-E1A inh	gsp agonist
COc1ccc(NS(=O)(=O)c2c(C)[nH]c(=O)[nH]c2=O)c(OC)c1	-4.0	5.4%	-6.1	-0.7	5.0	?
CC/C(=N\NC(=O)Nc1ccccc1)c1ccccc1	-2.4	-8.7%	-6.9	0.4	0.7	-6.9%[15.4 µM]
O=C(NCc1ccco1)C(Cc1ccccc1)N1C(=O)C2C3C=CC(C3)C2C1=O (configuration not stated)	4.3	-4.6%	-8.2	5.2	5.6	-33.4%[inhibitor]
Cc1ccc2c(CC(=O)OCC(=O)Nc3ccc(Cl)cn3)coc2c1	-7.5	10.3%	0.4	1.5	8.4	-4.2%[15.4 µM]
CC(C)c1nc2oc3c(NCCO)ncnc3c2c2c1COC(C)(C)C2	5.4	8.2%	0.3	6.6	·	10.6%
O[C@@H]1C[C@H](c2ccc(Cl)cc2)N(Cc2cccs2)C[C@H]1n1cc(-c2ccc(F)cc2)nn1	-9.5	·	2.3	2.8	3.2	-0.8%
COc1ccc(OC)c(S(=O)(=O)n2ccc(C)n2)c1	-1.8	5.1%	-1.9	0.6	3.0	0.8%
